Screening results as filed in PubChem BioAssay.
S aureus helic: inhibitors of S. aureus replicative helicase, primary screen, biochemical, fluorescence unwinding readout; AID 485395, 2010; replicative DNA helicase (DnaC/DnaB), Staphylococcus aureus; inhibition, %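 (tested at about 80 µM)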; hit rate 0.05% among 120,000; purified S. aureus helicase, fluorescence unwinding assay; about half of the hits fall short of the stated cut;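 active = both duplicates at 50% or more, or one of them with a favoured structure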;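 note: 0% = mean of negative control wells and 100% = mean of positive control wells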
MgrA DNA FP: S. aureus MgrA activity modulators, primary screen, biochemical, S. aureus Newman, fluorescence polarization. hit rate 0.13% among 84,000. MgrA-DNA binding. AID 602314, 2012. inhibition, %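 (about 10 µg/mL by stock and volumes)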;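 active = above 50% in either of two replicates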;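 note: 0% = protein plus DNA without compound and 100% = DNA alone without protein; higher means less MgrA bound to DNA so lower polarization; one replicate is shown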
Starred values were filed as active, the others as inactive; . = no result given.

S aureus helic,MgrA DNA FP,SMILES
-26,.,Cc1nc(=S)sn1-c1nc(Nc2ccccc2)nc(Nc2ccccc2)n1
9,.,NS(=O)(=O)c1ccc(CNC(=O)c2cccc(Cl)c2)cc1
-39,.,N#Cc1ccsc1NC(=O)c1cccs1
-10,.,Cc1cccc(-n2ccnc2SCC(=O)N2CCC(C(N)=O)CC2)c1C
.,-1.5,Cc1ccc2nc(C(F)(F)F)cc(N3CCC(C(=O)O)CC3)c2c1
11,5.7,CCS(=O)(=O)Nc1cc(C(=O)OC)ccc1C
.,-0.5,O=C(Nc1ccc(N2CCN(c3ccc(C(F)(F)F)cn3)CC2)nc1)c1cccs1
6,0.1,CCOC(=O)CSc1cc(=O)n(CC)c2ccccc12
11,-2.6,Cc1cccc(NC(=O)c2cccnc2)c1C
.,-4.3,O=C1CS(=O)(=O)C(c2cccnc2)N1Cc1ccc(F)cc1 (stereo not drawn)
30,.,CCOC(=O)c1c(C)[nH]c(/C=N/NC(=S)NCc2ccco2)c1Cc1cccc(Cl)c1
11,.,NC(=O)c1nn(CC(=O)N2CCN(Cc3nc4ccccc4s3)CC2)c(=O)c2ccccc12
-7,.,CN(Cc1ccccc1)C(=O)CSc1nc2ccccc2c(=O)n1Cc1ccco1
5,-1.8,N#Cc1nc2c(C#N)c(N)n(CCc3ccccc3)c2nc1C#N
.,-1.4,CCOC(=O)C1=C(C)NC(=O)NC1c1ccccc1Cl (stereo not drawn)
9,.,COC(=O)CSC1=NS(=O)(=O)c2ccccc2N1
0,0.2,Cc1ccccc1OCc1nnc(-c2ccccc2)o1
4,.,Cc1nc(Nc2ccc(Cl)cc2Cl)c(C#N)c(N(C)C)n1
.,2.5,O=C(NN1C(=O)/C(=C2/C(=O)N(Cc3ccccc3Cl)c3ccccc32)SC1=S)c1cccnc1
4,.,Cc1ccc(C)c(N2N=C(C(=O)Nc3ccc(N4CCOCC4)cc3)CCC2=O)c1
14,.,O=c1c2ccccc2c2ccccc2c(=O)n1Cc1ccco1
11,.,O=C(Nc1cccc(-c2nc3ccccc3s2)c1)C1=COCCO1
-1,.,Cc1nn(-c2cccc(C(F)(F)F)c2)c(Cl)c1/C=N/NC(N)=O
-5,.,Cc1cc(C)c(C)c(S(=O)(=O)N2CCN(C(=O)CCN3C(=O)C4CC=CCC4C3=O)CC2)c1C (stereo not drawn)
-35,.,O=C(O)Cc1nnc(-c2ccc3c(c2)OCO3)o1
-5,0.6,CN1C(=O)CSc2ccc(NC(=O)NCc3cccnc3)cc21
2,0.9,CCc1cc2c(=O)oc(-c3ccc(Br)cc3)nc2s1
15,-0.6,CCc1ccccc1NC(=O)C(CC)n1nc(C)n2c(cc3cc(C)ccc32)c1=O (stereo not drawn)
10,.,c1cncc(CNc2ncnc3sc4c(c23)CCCC4)c1
-1,.,CN(C)C(=O)C(Sc1nnc(-c2cccs2)n1C1CC1)c1ccccc1 (stereo not drawn)
12,-0.9,O=C(Nc1cc2c(s1)CCCC2)c1ccccc1
.,2.9,C=CCN1C(=O)NC(=O)/C(=C/c2ccc(OCc3ccccc3Cl)c(OC)c2)C1=O
3,-2.0,CC(C)=CC1C(C(=O)Nc2ccc(S(=O)(=O)N3CCOCC3)cc2)C1(C)C (stereo not drawn)
2,-2.9,COc1cc(SC)ccc1C(=O)NCCCn1ccnc1
-10,.,O=C(O)CCSc1nnnn1C1CCCCC1
.,5.8,O=C(Nc1nc(-c2ccccn2)cs1)c1sc2ccccc2c1Cl
.,-1.0,O=C(c1c[nH]c2ccccc12)N1CCOCC1
-30,10,CCCN1CC=C2C(C#N)(C#N)C(N)=C(C)[C@H](c3ccc(C(=O)OC)cc3)[C@@]2(C)C1
-20,.,O=C1CN(C(=O)c2ccc3c(c2)OCO3)C(c2ccccc2)c2cc(F)ccc2N1 (stereo not drawn)
-25,.,CCc1ccc2nc(NC(=O)c3cc(N4CCOCC4)ccn3)sc2c1
10,1.6,CCN1CCCC1CNC(=O)C1c2ccccc2C(=O)N(CCOC)C1c1ccc(F)cc1 (stereo not drawn)
2,.,CC(=O)Nc1sc2c(c1C(N)=O)CC(C)CC2 (stereo not drawn)
-22,.,CCc1cc(C(=O)OC)c(NC(=O)/C=C/C(=O)O)s1
21,.,CCC1CCCCN1C(=O)c1cnn(-c2ccc(F)cc2)c1-n1cccc1 (stereo not drawn)
3,0.2,O=C(NC1CC1)c1ccc2c(c1)N(Cc1ccccc1)C(=O)c1ccccc1S2
6,1.5,CCCc1cc(=O)oc2c(C)c(OC(C)C(=O)O)ccc12 (stereo not drawn)
6,-2.6,N#C/C(=C(\O)c1ccccc1)c1nc2ccccc2c(=O)[nH]1
12,0.8,Cc1nc2cc(-c3ccccc3)nn2c(C)c1CC(=O)NC1CCCC1
25,.,COc1ccc(NCc2cc(=O)n3c(-c4ccccc4)csc3n2)cc1
.,-3.7,CCCCn1c(=O)c(C(C)=O)c(O)c2ccccc21
10,1.4,CC(C)CC(=O)Nc1cc(C(F)(F)F)cc(C(F)(F)F)c1
7,.,Cc1ccc(NC(=O)C(C)Nc2cccc(-c3nnc4n3CCCCC4)c2)cc1 (stereo not drawn)
4,.,CCCn1c(SCC(=O)N2CCN(S(=O)(=O)c3ccc(Cl)cc3)CC2)n[nH]c1=O
11,.,CN(CC(=O)Nc1ccc(S(=O)(=O)N2CCCC2)cc1)CC(=O)Nc1ccc(F)c(F)c1F
-14,.,Cc1cn(CCC#N)nc1C=Nc1ccc(O)cc1
8,0.3,CC1CCCC(NC(=O)C2CCC(Cn3c(=O)[nH]c4ccccc4c3=O)CC2)C1C (stereo not drawn)
-6,.,O=C(NC1=NCCS1)c1cccc(S(=O)(=O)N2CCCc3ccccc32)c1
-8,.,COc1ccc(/C=C2\SC(=O)NC2=O)cc1
-8,.,COc1ccccc1C(=O)NC(=S)c1c(C)nc2sccn12
.,1.8,COc1ccc(-c2c(C#N)c(N)nc3sc(C(=O)c4ccc(C)cc4)c(N)c23)cc1

Next section
S aureus helic,MgrA DNA FP,SMILES
-6,.,CNS(=O)(=O)c1cccc(C(=O)OCC(N)=O)c1
25,.,CC(C)Oc1nsnc1N1CCOCC1
18,54*,CCCc1c(C)[nH]c2ccc(C(=O)O)cc2c1=S
-3,-0.8,Cc1nnc(SCCCN2C(=O)c3ccccc3C2=O)o1
14,1.5,CSC1=NCCN1C(=O)Cc1cccs1
9,2.1,Cc1ccc(Cn2nnc(-c3ccccc3C)n2)cc1
8,.,CN(C)c1nc(Nc2ccc(F)cc2)nc(-n2cccn2)n1
1,-0.2,Clc1ss/c(=N\c2ccccn2)c1Cl
-18,.,CN(CC(=O)Nc1ccc(N2CCOCC2)cc1)CC(=O)Nc1sc2c(c1C#N)CCCC2
-12,.,NC(=S)NC(=O)c1ccc(Cl)cc1
9,-0.7,CC(C)CCn1c(=O)c2sccc2n2c(CCCC(=O)O)nnc12
0,0.6,O=C(O)C(CS(=O)(=O)Cc1ccccc1)N1Cc2ccccc2C1=O (stereo not drawn)
8,.,Cc1ccc(NC(=O)NCc2nc3ccccc3n2C)cc1
14,.,CCN(c1ccc(OC)cc1)S(=O)(=O)c1cc(-c2onc(C)c2C)ccc1OC
5,3.2,CSc1ccc(S(=O)(=O)N2CCC(C(=O)Nc3ccc4c(c3)OCO4)CC2)cc1
19,.,O=C(Cn1ccccc1=O)Nc1ccc(N2CCOCC2)cc1N1CCOCC1
2,-3.2,CCOC(=O)c1c(/N=C/c2ccc(N(C)C)cc2)sc(C)c1C
-12,.,O=C1c2ccccc2-c2nn(C(=O)C3CCN(S(=O)(=O)c4cccs4)CC3)c3cccc1c23
-13,-0.8,O=C(c1c(F)cccc1F)N1CCCC1
-20,.,CSc1nc(NCCO)c(C#N)c(-c2ccc(C)cc2)n1
-1,.,CCC1(c2ccccc2)NC(=O)N(Cc2ccccc2)C1=O (stereo not drawn)
.,-3.9,COc1ccc(Nc2ncn[nH]2)cc1
-11,.,CN(C)CCCNc1ncnc2c1oc1ccccc12
8,0.9,Cc1ccc(S(=O)(=O)N2CCC(NC(=O)c3ccccc3)CC2)cc1
0,-5.5,CC(N)(Cc1ccc2c(c1)OCO2)C(=O)O (stereo not drawn)
-7,.,N#CC(C#N)=CNc1ccccc1C(=O)NCCCn1ccnc1
-15,.,O=c1[nH]cnc2c1c(-c1ccccc1)cn2-c1ccc(F)cc1
7,-0.7,CN1C(=O)CC(N2CCN(C/C=C/c3ccccc3)CC2)C1=O (stereo not drawn)
14,3.2,CC1=C(C(=O)N(C)C2CCCCC2)C2(CCC(C)CC2)OC1=O (stereo not drawn)
10,.,O=C(COC(=O)C1Cc2ccccc2CN1C(=O)c1ccco1)NC12CC3CC(CC(C3)C1)C2 (stereo not drawn)
.,-1.8,Cc1cc(=O)[nH]c(N2CCCC2)n1
-5,.,COC(=O)c1ccoc1-c1sc2nc(C)cc(C)c2c1N
-15,.,O=C(OCCOc1ccc(Br)cc1)c1ccc(O)cc1
11,.,Cc1cc(C)n(-c2ccc(C(=O)NCCSCc3ccco3)cc2)n1
13,.,COc1ccc(CN(C)C(=O)COC(=O)c2c(-c3ccccc3Cl)noc2C)cc1
0,-2.4,CN(CC(=O)O)S(=O)(=O)c1ccc2oc3ccccc3c2c1
.,3.0,O=C(CS(=O)(=O)c1ccc(Cl)cc1)Nc1ccc(F)c(F)c1F
-18,.,Cc1cc(=O)[nH]n(CCO)c1=O
.,2.5,CCOC(=O)N1CCc2c(sc3nc[nH]c(=O)c23)C1
16,0.3,CCC(=O)N1CCN(c2ccc(NC(=O)c3ccccc3)cc2)CC1
.,-4.8,O=C(Oc1ccc2ccccc2c1C1SCCS1)c1cccs1
1,-3.8,CCOC(=O)C1CCCN(Cc2cccs2)C1 (stereo not drawn)
21,.,CCOC(=O)NC(C)C1CC2CCC1C2 (stereo not drawn)
-4,3.5,CC(=O)OC1C(OC(C)=O)N(C)C(=O)N1C (stereo not drawn)
.,0.1,CCN(C(=O)c1c(C(F)(F)F)ccnc1OC)c1c(C)cccc1C

4 structures already listed, ordered by molar mass, highest first.
S aureus helic,MgrA DNA FP,SMILES
-15,.,O=C(OCCOc1ccc(Br)cc1)c1ccc(O)cc1
-5,.,COC(=O)c1ccoc1-c1sc2nc(C)cc(C)c2c1N
.,2.5,CCOC(=O)N1CCc2c(sc3nc[nH]c(=O)c23)C1
-18,.,Cc1cc(=O)[nH]n(CCO)c1=O

Remaining list, next part
S aureus helic,MgrA DNA FP,SMILES
2,.,O=C(CSc1nc2ccccc2s1)N1CCCC1
.,-1.8,CCOC(=O)C(C#N)=C1C2CC3CC(C2)CC1C3
-7,.,CCS(=O)(=O)c1ccc(C(=O)Nc2nccs2)cc1
-3,3.0,CCOC(=O)c1nc(NCc2ccccc2)c2ccccc2n1
13,.,Nc1ccc(C(=O)OCN2C(=O)c3ccccc3C2=O)cc1
6,.,CCC(=O)Nc1ccc(-c2ccc3nncn3n2)cc1
.,-0.3,CNC1(C)C2CCC(C2)C1(C)C (stereo not drawn)
11,.,O=C(O)CCS(=O)(=O)c1ccc2[nH]c(=O)oc2c1
-9,.,CN(CC(=O)Nc1ccc(C(N)=O)cc1)Cc1c(F)cccc1Cl
15,-0.2,COC(=O)c1ccc(CSc2nnc(-c3c[nH]c4ccccc34)n2C)o1
.,-0.4,O=C(CSc1n[nH]c(=O)n1Cc1ccccc1)Nc1cc(Cl)cc(Cl)c1
-9,.,Nc1nnnn1CC(=O)OCC(=O)c1ccccc1
.,-1.5,O=C(Cc1cc(F)cc(F)c1)Nc1ccccn1
10,-0.7,CN(CC(=O)Nc1nc2ccccc2s1)S(=O)(=O)c1ccccc1
18,2.1,CCC1=C/C(=C/N(C)c2ccccc2)C(=O)S1
4,.,Cc1c(/C=N/NC(=O)CCc2ccc(S(=O)(=O)N3CCOCC3)cc2)cc(C#N)n1C
17,-0.2,C#CC(C)(C)OC(=O)Nc1ccccc1
17,.,Cc1[nH]n(-c2ccccc2)c(=O)c1/C=N/O
.,-2.0,CC[C@H]1OC(=O)[C@H](C)[C@@H](O[C@H]2C[C@@](C)(OC)[C@@H](O)[C@H](C)O2)[C@H](C)[C@@H](O[C@H]2O[C@H](C)C[C@H](N(C)C)[C@H]2O)[C@](C)(O)C[C@@H](C)C(=O)[C@H](C)[C@@H](O)[C@]1(C)O

Structures listed so far that have an NH in an aromatic ring (15):
S aureus helic,MgrA DNA FP,SMILES
30,.,CCOC(=O)c1c(C)[nH]c(/C=N/NC(=S)NCc2ccco2)c1Cc1cccc(Cl)c1
.,-1.0,O=C(c1c[nH]c2ccccc12)N1CCOCC1
6,-2.6,N#C/C(=C(\O)c1ccccc1)c1nc2ccccc2c(=O)[nH]1
4,.,CCCn1c(SCC(=O)N2CCN(S(=O)(=O)c3ccc(Cl)cc3)CC2)n[nH]c1=O
8,0.3,CC1CCCC(NC(=O)C2CCC(Cn3c(=O)[nH]c4ccccc4c3=O)CC2)C1C (stereo not drawn)
18,54*,CCCc1c(C)[nH]c2ccc(C(=O)O)cc2c1=S
.,-3.9,COc1ccc(Nc2ncn[nH]2)cc1
-15,.,O=c1[nH]cnc2c1c(-c1ccccc1)cn2-c1ccc(F)cc1
.,-1.8,Cc1cc(=O)[nH]c(N2CCCC2)n1
-18,.,Cc1cc(=O)[nH]n(CCO)c1=O
.,2.5,CCOC(=O)N1CCc2c(sc3nc[nH]c(=O)c23)C1
11,.,O=C(O)CCS(=O)(=O)c1ccc2[nH]c(=O)oc2c1
15,-0.2,COC(=O)c1ccc(CSc2nnc(-c3c[nH]c4ccccc34)n2C)o1
.,-0.4,O=C(CSc1n[nH]c(=O)n1Cc1ccccc1)Nc1cc(Cl)cc(Cl)c1
17,.,Cc1[nH]n(-c2ccccc2)c(=O)c1/C=N/O

Only part of the results is shown. The share of hits here may be higher or lower than overall.
